ugtP null kill = compounds lethal to S. aureus RN4220 ugtP deletion mutant; AID 1259309; OD600 growth, 16 h; some inactives read as strong as hits; growth inhibition, % (concentration not given with the values); 0.54% of 330,000 active;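 active = z-score under -3 and OD600 up to 0.15 on both plates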;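 note: plate controls were untreated wells for no effect and antibiotic for full effect; wells of about 80 µL received 100 nL stock; the first replicate is given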
Mtb hypoxia inh = Mtb hypoxia fluorescent reporter inhibition | M. tuberculosis hypoxia-regulated fluorescent reporter, fluorescence | fluorescence inhibition, % (no concentration beside the values) | 0.1% of 300,000 active | AID 1159583;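 active = 35 to 45% if threefold the growth effect, above 45% if 1.5-fold the growth effect; inactive = the rest, general growth blockers included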;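 note: wells of about 50 µL received 100 nL stock; 0% = vehicle wells and 100% = reference inhibitor wells; whole bacteria with a GFP reporter of the hypoxia response; strong numbers were not always called active; many hits fall short of the cut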
PrP 5UTR inh = inhibition of PrP 5' UTR reporter expression; cell-based PrP 5' UTR mRNA reporter, plate reader; inhibition, % (test concentration not listed); 0.35% of 340,000 active;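 active = every replicate at 50% or more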;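 note: 0 = median of the neutral control wells; tested in H4 reporter cells; numbers are from one replicate; inactives centre near -14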
Autofluor counter = counter-screen for toxin protease inhibitors: compound fluorescence. compound autofluorescence counterscreen, microsphere flow cytometry; stronger effect = higher value. fluorescence intensity (test concentration not listed). 3.1% of 360,000 active. AID 624483;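 active = at least 3 SD above the mean of all compounds, about 16000 in these data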;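 note: 100 nL of 1 mM stock went into each well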
RN4220 kill = S. aureus RN4220 growth inhibition. 0.33% of 330,000 active. inhibition, % (concentration not given with the values). OD600, 16 h;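 active = z-score of -3 or lower and OD600 up to 0.18 on both plates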;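 note: plate controls were untreated cells for no effect and reference antibiotic for full effect; stock transfer was 100 nL into about 80 µL; one replicate is shown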
BJeLR lethal = BJeLR cell viability loss | BJeLR (HRASV12) viability, CellTiter-Glo ATP luminescence, 48 h; reference of the scale not given here | inhibition, % (no concentration beside the values) | 0.17% of 300,000 active;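 active = replicate mean above 50%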;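 note: 50 nL library stock added to about 25 µL; numbers are from one replicate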
Mtb hypoxia inh growth = also measured in Mtb hypoxia inh; calls as there; growth inhibition, %; measured here: M. tuberculosis growth (absorbance);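 0% = vehicle and 100% = reference antibiotic; read after six days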
* hit, by the source's call; · = not tested or not shown; & = joins results of further samples. Rows were taken by chance; overall some 4.1% were active at least once.

SMILES	ugtP null kill	Mtb hypoxia inh	Mtb hypoxia inh growth	PrP 5UTR inh	Autofluor counter	RN4220 kill	BJeLR lethal
C[n+]1ccccc1/C=C/c1ccc(C#N)cc1	3.9	12.4	1.0	-9.7	4037	3.6	0.7
Cc1ccc(-c2[nH]c(-c3ccc(Cl)cc3)nc2SCC(=O)NCC2CCCO2)cc1 (stereo unspecified)	-20.5	-2.8	12.7	-36.6	6049	-11.4	-1.6
CC1CN(CCOc2cccc(Oc3ccccc3)c2)CC(C)O1 (stereo unspecified)	22.4	6.1	23.9	-5.2	4171	4.1	-4.8
Cc1cccc(NC(=O)CCC(=O)NN=Cc2ccncc2)c1	0.4	5.4	2.6	·	·	3.6	·
CCOc1ccc(NC(=O)c2ccc(NC(=O)c3ccc(NC(N)=O)cc3)cc2)cc1	0.8	3.1	4.7	·	3421	2.6	·
COC(=O)c1c(NC(=O)Cc2cccs2)sc2c1CCC(C)C2 (stereo unspecified)	20.2	8.1	10.0	-54.7	5956	1.9	-2.9
CCCn1c(CNc2ccc(Br)cc2)nc2ccccc21	-8.9	7.9	7.1	-4.9	4682	-16.3	-2.9
Cc1sc2ncnc(NCC(O)c3ccc([N+](=O)[O-])cc3)c2c1C (stereo unspecified)	-8.2	6.7	-7.8	-29.9	5943	2.6	11.4
CN(C)c1cccc(C(=O)NCCCSc2ccccc2)c1	7.4	4.5	0.9	6.1	4333	2.4	-6.4
Cc1ccc(NS(=O)(=O)c2ccc(C)c(NC(=O)COc3ccc4ccccc4c3)c2)c(C)c1	3.6	0.6	-1.2	-21.4	4567	-8.7	-9.3
Cc1cc(C(=O)Nc2ccc(Cl)cc2)n(-c2ccccc2)n1	7.8	5.8	3.7	-15.1	3996	3.0	-14.7
Cc1ccc(C(c2c(O)nc3n(c2=O)CCS3)c2c(O)nc3n(c2=O)CCS3)cc1	3.7	-8.4	-1.4	-11.4	2074	5.4	-4.1
O=C(CN1C(=O)C2CC=CCC2C1=O)Nc1nnc(C2CC2)s1 (stereo unspecified)	0.6	7.6	9.9	-12.4	3842	4.7	·
COc1ccccc1CN1CC(C(=O)NCc2ccc(N3CCCC3=O)cc2)CCC1=O (stereo unspecified)	-5.3	4.2	6.4	-5.3	5534	-1.9	-0.2
CCn1cc(C(=O)NC(C)C)c(=O)c2cc(F)c(N3CCN(C(=O)c4ccco4)CC3)cc21	22.8	-4.4	9.4	-29.9	4833	6.7	6.0
COc1cccc(CNC(=O)CCC2CCCN(C(=O)Cc3ccccc3F)C2)c1 (stereo unspecified)	4.0	14.5	8.9	-13.7	4174	6.8	-8.7
O=C(Nc1ccccc1)/C(=C\c1ccc2c(c1)OCO2)NC(=O)c1ccco1	2.8	10.9	15.0	-10.7	6905	3.6	-3.1
COc1cc(C(=O)Nn2cnnc2)ccc1OC(F)F	5.8	-5.0	-3.9	-13.9	3224	0.3	-3.5
Cc1[nH]n(-c2ccccc2)c(=O)c1C=NNC(=O)c1ccccc1F	-7.9	-8.9	-6.3	·	·	11.5	·
COc1ccc(C(C)=NNC(=S)NCCc2ccccc2)cc1	-11.4	7.6	2.4	·	·	3.6	·
CC(C)(C)n1nnnc1C(c1ccccn1)N1CCN(C(c2ccccc2)c2ccccc2)CC1 (stereo unspecified)	-14.4	-12.3	-10.7	-7.2	3388	-0.9	-10.2
CCc1nnc(NS(=O)(=O)c2ccc(NC(=O)c3cc(Cl)ccc3OC)cc2)s1	7.7	-19.7	8.5	-25.3	3440	0.3	-0.5
Cc1ccc(C)c(NC(=O)CN(C)C(=O)c2cc(C3CC3)nn2-c2ccccc2)c1	1.5	3.2	10.4	-4.8	3666	2.0	·
CC(=O)c1cccc(S(=O)(=O)N2CCC(C(=O)Nc3cccc(C(=O)NC4CC4)c3)CC2)c1	-0.3	2.2	-6.4	-20.4	7270	0.2	·
Cc1nc(N)sc1C(=O)Nc1ccccc1	5.2	·	·	32.0	3753	1.8	0.1
O=C(NCCC1CCCCN1S(=O)(=O)c1ccccc1)C(=O)NCc1ccccc1F (stereo unspecified)	9.8	12.7	3.8	-3.1	6257	2.6	8.2
Cn1c(=O)n(C)c2cc(/C=N/NC(=S)NCc3ccccc3)ccc21	·	·	·	-22.8	2456	·	-13.5
COc1ccc(/C=N/NC(=O)c2cc(C)oc2C)cc1OC	·	·	·	-18.8	4009	·	4.0
CC1CCC(NC(=O)C(C)N2C(=O)C3CCCCC3C2=O)CC1 (stereo unspecified)	-0.2	13.6	4.8	-30.8	3486	7.9	·
COc1ccc(NC(=O)C2=CN3CCS(=O)(=O)N=C3C=C2)c(OC)c1	6.8	0.1	3.0	5.2	3279	4.7	·
O=C(NC1c2ccccc2-c2ccccc21)c1ccccc1	9.8	1.9	-10.6	-9.5	2522	9.2	-11.5
Cc1ccc2[nH]c(=S)cc(C)c2c1	0.8	·	·	-11.4	4124	-2.4	-5.0
CCC(=O)c1ccc(OCC(=O)OCC(=O)NCCC2=CCCCC2)cc1	2.7	2.0	-15.2	-22.0	7279	2.4	-0.6
Cc1ccc(S(=O)(=O)CCC(=O)OCC(=O)NCCc2ccc(F)cc2)cc1	0.5	2.9	2.4	-10.8	5651	1.9	10.8
CC(=O)NC(Cc1ccc(F)cc1)C(=O)NC1CCN(C(=O)Nc2ccc(F)cc2)CC1 (stereo unspecified)	11.1	-7.0	-4.8	-16.8	5131	1.5	-3.9
Cc1ccc(C(c2nnnn2CS(=O)(=O)c2ccc(C)cc2)N2CCCC2)cc1 (stereo unspecified)	2.2	-2.2	-0.2	-16.5	3533	-1.0	4.4

Twelve of these compounds in a different format.
Order of results – ugtP null kill | Mtb hypoxia inh | Mtb hypoxia inh growth | PrP 5UTR inh | Autofluor counter | RN4220 kill | BJeLR lethal
- Cc1nc(N)sc1C(=O)Nc1ccccc1
→ 5.2 | · | · | 32.0 | 3753 | 1.8 | 0.1
- O=C(NCCC1CCCCN1S(=O)(=O)c1ccccc1)C(=O)NCc1ccccc1F (stereo unspecified)
→ 9.8 | 12.7 | 3.8 | -3.1 | 6257 | 2.6 | 8.2
- Cn1c(=O)n(C)c2cc(/C=N/NC(=S)NCc3ccccc3)ccc21
→ · | · | · | -22.8 | 2456 | · | -13.5
- COc1ccc(/C=N/NC(=O)c2cc(C)oc2C)cc1OC
→ · | · | · | -18.8 | 4009 | · | 4.0
- CC1CCC(NC(=O)C(C)N2C(=O)C3CCCCC3C2=O)CC1 (stereo unspecified)
→ -0.2 | 13.6 | 4.8 | -30.8 | 3486 | 7.9 | ·
- COc1ccc(NC(=O)C2=CN3CCS(=O)(=O)N=C3C=C2)c(OC)c1
→ 6.8 | 0.1 | 3.0 | 5.2 | 3279 | 4.7 | ·
- O=C(NC1c2ccccc2-c2ccccc21)c1ccccc1
→ 9.8 | 1.9 | -10.6 | -9.5 | 2522 | 9.2 | -11.5
- Cc1ccc2[nH]c(=S)cc(C)c2c1
→ 0.8 | · | · | -11.4 | 4124 | -2.4 | -5.0
- CCC(=O)c1ccc(OCC(=O)OCC(=O)NCCC2=CCCCC2)cc1
→ 2.7 | 2.0 | -15.2 | -22.0 | 7279 | 2.4 | -0.6
- Cc1ccc(S(=O)(=O)CCC(=O)OCC(=O)NCCc2ccc(F)cc2)cc1
→ 0.5 | 2.9 | 2.4 | -10.8 | 5651 | 1.9 | 10.8
- CC(=O)NC(Cc1ccc(F)cc1)C(=O)NC1CCN(C(=O)Nc2ccc(F)cc2)CC1 (stereo unspecified)
→ 11.1 | -7.0 | -4.8 | -16.8 | 5131 | 1.5 | -3.9
- Cc1ccc(C(c2nnnn2CS(=O)(=O)c2ccc(C)cc2)N2CCCC2)cc1 (stereo unspecified)
→ 2.2 | -2.2 | -0.2 | -16.5 | 3533 | -1.0 | 4.4

Additional compounds:
SMILES	ugtP null kill	Mtb hypoxia inh	Mtb hypoxia inh growth	PrP 5UTR inh	Autofluor counter	RN4220 kill	BJeLR lethal
Cc1sc(NC(=O)C2CCCO2)c(C#N)c1C (stereo unspecified)	2.1	9.2	7.3	·	8259	0.4	4.7
CCOC(=O)c1noc(C)c1C(=O)Nc1nccs1	-7.0	0.8	12.3	-10.8	3452	-0.1	1.7
CC(=O)Oc1ccccc1-c1nc(C)nc(N(C)C(C)=O)n1	0.9	-6.8	2.6	-4.6	10433	2.3	7.4
Cc1ccc(-n2c(=O)c3ccccc3n(CC(=O)NCc3ccco3)c2=O)cc1	3.1	-6.8	-3.5	-20.7	4266	11.3	6.5
Cc1oc2cc(O)ccc2c(=O)c1Oc1ccccc1Br	7.7	10.2	10.8	-10.1	5103	2.5	-6.3
COc1ccccc1N1CCN(C(=O)c2cccc(NC3=NC4CS(=O)(=O)CC4S3)c2)CC1 (stereo unspecified)	3.3	-2.1	-3.4	-7.3	4478	6.7	-9.9
C[C@H]1C(=O)N(C)CCN1Cc1cn(C)nc1-c1ccc(Oc2ccccc2)cc1	5.1	14.1	3.4	-24.5	4347	5.2	-0.4
COc1ccc2c(c1)c(C(=O)O)c(C)n2-c1ccc(Cl)cc1	-8.3	6.5	-3.0	-15.7	4022	6.7	-4.9
COc1cccc(-n2cnc3c(sc4nc(N5CCOCC5)c5c(c43)CCCC5)c2=O)c1	2.5	-7.0	-2.4	-24.2	4411	-5.1	-2.9
CS(=O)(=O)c1cccc(NC(=O)CSc2nnc3n2CCCCC3)c1	11.2	3.2	3.9	-20.2	6647	5.5	·
C/C(=N\NC(=O)c1cc(-c2ccncc2)nc2ccccc12)c1ccc(OC(F)F)cc1	·	·	·	-26.4	4001	·	-8.4
O=C(COC(=O)CNS(=O)(=O)c1cccc(Br)c1)Nc1ccccc1Sc1ccccc1	-11.8	2.7	-3.5	-16.9	2451	11.5	-17.7
COc1ccc(CCNC(=S)NC(=O)/C=C/c2ccc(C)cc2)cc1OC	-13.3	-8.0	-8.1	-11.5&-33.6	10148	4.3	-1.0
CN(C)c1ccc2c(c1)N=C(c1ccco1)OP2(=S)N1CCOCC1 (stereo unspecified)	6.7	1.9	13.6	-56.6	10067	1.9	-5.4
COc1ccc(NC(=O)C(=O)NNC(=O)COc2ccc(OC)cc2)cc1	-0.2	-0.1	8.1	-17.9	5822	3.0	-4.5
Cc1ccc(NC(=O)NCc2ccccn2)cc1Cl	2.4	0.5	-6.3	-19.6	6059	0.7	5.4
Cc1cc(SCc2ccc(F)cc2)nc(=O)[nH]1	-2.5	4.7	1.4	-8.3	7853	1.7	-13.8
Cc1ccc(S(=O)(=O)N2CCCC2C(=O)Nc2cc(C)on2)cc1 (stereo unspecified)	4.1	5.4	5.2	3.5	12512	3.5	6.4
O=C(COC(=O)C12CC3CC(CC(C3)C1)C2)Nc1ccc2[nH]c(=O)[nH]c2c1	-6.7	-6.3	-6.5	0.8	5794	0.0	-1.4
Cc1ccc(-c2nnn(CC(=O)Nc3cccc4cccnc34)n2)o1	-2.7	·	·	3.8	3449	4.0	·
O=C(Nc1ccccc1Cl)c1cccs1	-3.9	·	·	-42.8	2459	4.6	-5.8
CC(C)Cc1cc(C(=O)NCCN2CCOCC2)no1	-1.6	-1.3	3.3	-15.8	5719	-0.8	10.5
CC(=O)N(C)c1ccc(NC(=O)Nc2ccc(C)cc2)cc1	8.6	-0.5	7.4	-7.3	2420	-0.8	10.1
CC(C)(C)C1CCc2c(C(=O)N/N=C/c3cccs3)csc2C1 (stereo unspecified)	·	·	·	-30.6	11342	·	-3.8
Cc1nc2oc(C(=O)c3ccccc3)c(N)c2c2c1COC(C)(C)C2	-6.2	-10.9	2.5	-32.6	3239	4.7	12.8
COc1ccc(C=NNC(=O)c2ccc(OC)c(OC)c2)cc1COc1c(F)c(F)c(F)c(F)c1F	0.6	1.6	9.2	·	·	1.1	·
O=C(c1cc2cc(Br)cc(Br)c2oc1=O)N1CCCC1	-1.3	0.7	5.3	-12.9	5571	-0.2	5.4
COc1ccc(NC(=O)OC(CN2CCCCC2)C(F)(F)F)cc1 (stereo unspecified)	0.1	·	·	-26.4	4796	-0.6	0.6
Cc1c(-c2ccccc2)[n+](=O)c(-c2ccc(Cl)cc2)c(C)n1[O-]	4.1	12.4	1.5	-18.8	4570	6.9	-5.1
CCC(c1nnnn1CCOC)N(Cc1ccc(C)cc1)Cc1cc2cc(OC)ccc2[nH]c1=O (stereo unspecified)	-10.4	-2.0	5.8	-25.4	2941	4.8	-2.8
COc1ccc(-c2cn[nH]c2-c2ccc(OCc3ccc(F)cc3)cc2O)cc1OC	13.2	2.4	-5.0	-23.8	8570	15.8	-6.6
CNCC(CC1CCCCC1)NCC(Cc1ccccc1)NCCC12CC3CC(CC(C3)C1)C2 (stereo unspecified)	100.7*	·	·	·	·	100.4*	·
Cc1ccc(OCC(=O)OC2CCCN(C)C2)cc1 (stereo unspecified)	8.8	6.3	3.7	0.5	2462	0.0	0.4
